Assay outcomes (PubChem BioAssay)
Mtb H37Rv = Confirmatory growth inhibition assay against Mycobacterium tuberculosis H37Rv, potency (AID 1949) | 100,000 tested, 1.6% active | most inactive calls were filed without a number and no value below 0 was filed | inhibition, % at 10 µg/mL; hits with a dose series show IC50 in µg/mL;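 active means confirmed in a dose series; inconclusive means about 50% or more but not retested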;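 further: bacteria grown 7 days with compound before Alamar blue readout; 0% = untreated bacteria and 100% = reference antibiotic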
Active calls of the source: *; i = inactive; ? = inconclusive.

nr | Structure | Mtb H37Rv
1 | COC(=O)c1cc(Cc2ccccc2)sc1NC(=O)C1(C)CC1(Cl)Cl (stereo not drawn) | i
2 | CCC(C)NC(=O)c1ccccc1NC(=O)c1cccc(Cl)c1 (stereo not drawn) | i
3 | COc1ccc(-c2csc3ncn(-c4ccc(C)cc4)c(=O)c23)cc1OC | 4%
4 | COc1ccc2c(c1)CCC(C)N2S(=O)(=O)c1ccc(C2CNC(=O)C2)cc1 (stereo not drawn) | 3%
5 | CCOC(=O)COc1ccc(S(=O)(=O)NC2CC2)cc1 | i
6 | CCN(CC)C(=O)C(=O)Nc1cccc(Cl)c1 | 1%
7 | Cc1ccc(S(=O)(=O)ON2C(=O)c3cccc4cccc(c34)C2=O)cc1 | i
8 | O=c1c2ccccc2ncn1CCCCOc1ccccc1-c1ccccc1 | 12%
9 | CC(=O)Nc1ccc2cccc(O)c2n1 | 0.96µg/mL*
10 | O=C(Cc1ccc(Cl)cc1)Nc1ccccc1N1CCN(C(=O)c2ccccc2)CC1 | i
11 | Cn1nccc1CNC(=O)c1ccc(-c2ccccc2)cc1 | i
12 | CN(C)C(=O)N1CCN(C(=O)c2ccccc2Sc2ccccc2C#N)CC1 | i
13 | CCc1cc2c(=O)oc(-c3ccccc3F)nc2s1 | i
14 | COc1ccc(-n2c(SCC(=O)Nc3ccc(C)cc3)nc(O)c(Cc3ccccc3)c2=O)cc1 | 10%
15 | CC(C)C(=O)Nc1cccc(NC(=S)NC(=O)c2cccc(COc3ccccc3)c2)c1 | i
16 | CCCCCC(=O)NC(=S)Nc1cc(C)c(I)cc1C | i
17 | Cc1cc(C)c(C)c(C(=O)CC2(O)C(=O)N(C)c3ccccc32)c1C (stereo not drawn) | i
18 | CCn1c(CNC(=O)c2ccc(OC)cc2)nnc1SCC(=O)Nc1ccc(Br)c(C)c1C | i
19 | Cc1cc(OCC(=O)N2CCc3ccccc3C2)cc(C)c1Cl | 31%
20 | COc1cc2c(cc1NC(=O)CSc1nnnn1C)oc1ccccc12 | i
21 | CCC(C)c1ccccc1OCCCCN1CCCCCC1 (stereo not drawn) | i
22 | COc1cccc(C2C3=C(N=C4SCC(=O)N42)c2ccccc2CC3)c1OC (stereo not drawn) | i
23 | O=S(=O)(Nc1ccccc1Br)c1cccc2cccnc12 | i
24 | O=C(Nc1nc2c(s1)CCCC2)c1ccc(N2CCOCC2)c([N+](=O)[O-])c1 | 12%
25 | CN(C)CCCNC(=O)C1CCNCC1 | i
26 | CC(=O)c1ccc(N2CCN(C(=S)NCc3ccc(Cl)cc3)CC2)cc1 | 0%
27 | CN(C)c1ccc(-c2ncnn2-c2ccccc2)cc1 | 1%
28 | COc1ccc(S(=O)(=O)N2CCN(C)CC2)cc1I | i
29 | CCCNC(=O)c1ccccc1NS(=O)(=O)c1ccccc1 | i
30 | CC1CCc2c(sc(NC(=O)CC(C)(C)C)c2C#N)C1 (stereo not drawn) | i
31 | Cc1c(OS(=O)(=O)c2ccccc2)ccc2c3c(c(=O)oc12)CCCC3 | i
32 | CC(=O)c1ccc(NC(=O)CSc2nc(C)c(C)c(=O)[nH]2)cc1 | i
33 | CC(C)C(=O)Nc1cccc(NC(=S)NC(=O)COc2ccc(Br)cc2)c1 | i
34 | CC1(c2ccc([N+](=O)[O-])cc2)CC1(Cl)Cl (stereo not drawn) | 4%
35 | O=S(=O)(Nc1ccc2c(c1)OCCO2)c1cccc(F)c1 | i
36 | CCc1c(C)sc2[nH]c(=O)c3c(=O)[nH]c(C)nc3c12 | i
37 | Cc1ccc(OCC(=O)Nc2cccc(-c3nc4ccccc4s3)c2)c(C)c1 | i
38 | C=CCSc1nc2c(c(=O)[nH]1)C(c1ccc(C)o1)C1=C(CCCC1=O)N2 (stereo not drawn) | i
39 | C(=C\c1ccc2noc(-c3ccccc3)c2c1)/c1ccccc1 | 1%
40 | O=C(Cn1cnc2sc(-c3ccccc3)cc2c1=O)N1CCOCC1 | i
41 | CN(C)CCCNC(=S)NCc1ccc(Cl)cc1 | 2%
42 | Cc1cccc(NC(=S)NCc2cccs2)c1 | i
43 | CCCn1c(SCC(=O)Nc2ccc(Br)c(C)c2)nnc1-c1ccncc1 | i
44 | O=C1CC(Cc2ccccc2)C(=O)N1c1ccc(Cl)cc1 (stereo not drawn) | i
45 | COc1ccc2c(c1)SC1=NC(=O)C(Cc3ccccc3)C(=O)N12 (stereo not drawn) | i
46 | COc1ccc(C(=O)Nc2ccc(-c3csc(C)n3)cc2)cc1OC | i
47 | Clc1ccccc1CN1CCN(C2CCCCC2)CC1 | i
48 | Cc1ccc(N(C(C)C(=O)N2CCOCC2)S(C)(=O)=O)cc1 (stereo not drawn) | i
49 | CC(NC(=O)CNCc1ccccc1)C12CC3CC(CC(C3)C1)C2 (stereo not drawn) | i
50 | Cc1ccc(C(=O)Nc2ccc(Cc3ccncc3)cc2)c(C)c1 | 22%
51 | Cc1cc(C)nc(N(C#N)Cc2ccccc2)n1 | i
52 | COc1ccc(-c2cc(=O)oc3c(C)c(OCC(=O)C(C)(C)C)ccc23)cc1 | 24%
53 | CCc1cc(=O)oc2c(C)c(OCc3ccccc3OC)ccc12 | 1%
54 | O=C(CCC(=O)Nc1cccc(Cl)c1Cl)Nc1cccc(Cl)c1Cl | i
55 | COc1ccc(S(=O)(=O)N2CCCCC2)cc1[N+](=O)[O-] | 1%
56 | c1ccc(CNc2nc(N3CCOCC3)nc(N3CCOCC3)n2)cc1 | i
57 | CCC(=O)Nc1ccc2c(c1)Cc1cc(NC(=O)CC)ccc1-2 | i
58 | O=C(NC(=S)Nc1cccc(-c2nc3ncccc3o2)c1)c1cccs1 | 1%
59 | Cc1onc(-c2ccccc2Cl)c1C(=O)Nc1nc2ccc(S(C)(=O)=O)cc2s1 | 1%
60 | CCCCOc1ccc(C2C(C(=O)c3ccco3)=C(O)C(=O)N2CCN(CC)CC)cc1 (stereo not drawn) | i

(list continues)
nr | Structure | Mtb H37Rv
61 | Cc1cc(C)nc(NC(=S)NCc2ccco2)c1 | i
62 | CC(C)C(=O)N1CCN(c2ccccc2NC(=O)c2ccc(-c3ccc(Cl)cc3Cl)o2)CC1 | i
63 | COCCNc1ccc([N+](=O)[O-])cc1C(=O)Nc1cccc(C)n1 | i
64 | Cc1cc(C(=O)Nc2ccc(F)cc2C)cs1 | i
65 | COc1ccc(-c2noc(-c3ccccc3Br)n2)cc1 | 4%
66 | CCOc1ccccc1C(=O)Nc1ccc(O)cc1C(=O)O | 3%
67 | CCOc1ccccc1CNC(c1ccccc1)c1ccccc1 | 0%
68 | COC(=O)c1cccc(NC(=O)CSCc2c(Cl)cccc2Cl)c1C | 2%
69 | COc1ccc(S(=O)(=O)N(Cc2ccccc2)c2ccccc2C(=O)Nc2ccc(F)c(F)c2)cc1 | 13%
70 | COc1cc(C=O)ccc1OCCOC(C)=O | i
71 | CCN(CC)c1ccc(Nc2nc(-c3ccc(O)c(O)c3)cs2)cc1 | i
72 | O=C1NC(=O)C(CCc2ccncc2)(CCc2ccncc2)C(=O)N1c1ccc(Cl)cc1 | i
73 | COc1ccc(C(=O)Nc2nncs2)c(OC)c1 | 1%
74 | CC(C)C(=O)Nc1ccc(C(=O)Nc2ccc3c(c2)OCCO3)cc1 | i
75 | CC(C)NC(=O)c1cc(-c2cccs2)nc2ccccc12 | i
76 | Cc1ccc(C(=O)O)cc1NC(=S)NC(=O)c1ccccc1I | 0%
77 | O=C(NCCC1=CCCCC1)c1cc2cc(Cl)ccc2oc1=O | i
78 | O=C(Nc1ccccc1)c1ccc(NC(=S)Nc2ccccc2)cc1 | i
79 | CCOC(=O)c1c(NC(=S)N2CCN(C(=O)C3CCCO3)CC2)sc2c1CCCCCC2 (stereo not drawn) | i
80 | O=c1n(S(=O)(=O)c2cccc3cccnc23)c2ccccc2n1S(=O)(=O)c1cccc2cccnc12 | 0%
81 | COc1cc(OC)cc(C(=O)Nc2ccccc2N2CCCC2)c1 | i
82 | c1ccc2c(CN3CCOCC3)c[nH]c2c1 | i
83 | COc1ccccc1Cc1noc(-c2cc(Cl)ccc2OC)n1 | i
84 | CCCCC(=O)Nc1cccc(NC(=S)NC(=O)c2ccc(Cl)cc2Cl)c1 | 2%
85 | CCOC(=O)c1c(-c2cccs2)csc1NC(=O)CC(C)C | 6%
86 | CCC(=O)c1cn(CC(=O)O)c2ccccc12 | i
87 | COc1cc2nc(N3CCNCC3)nc(N)c2cc1OC | i
88 | Cc1ccc(NC(=O)COc2ccc(C)c(C)c2)cc1C | i
89 | COC(=O)c1c(NC(=O)CN2C(=O)c3ccccc3C2=O)sc2c1CCC(C)C2 (stereo not drawn) | i
90 | CCOc1ccc(C2OC(=O)Cc3cc(OC)c(OC)cc32)cc1 (stereo not drawn) | i
91 | COc1ccc(Cl)cc1NC(=O)CCN1C(=O)C2C3C=CC(C4CC34)C2C1=O (stereo not drawn) | i
92 | COc1ccc(NC(=O)c2ccc(CSc3ccccc3)cc2)cc1 | i
93 | Cc1ccc(OCCNC(=O)C(=O)Nc2ccccc2Cl)cc1 | 1%
94 | NC(=S)Nn1c(CCC(=O)O)ccc1-c1cccs1 | 0%
95 | COc1ccc(NC(=O)CSc2ncccn2)cc1Cl | i
96 | Nc1cc(N)c2cc(-c3ccccc3)oc2c1 | i
97 | COc1ccc(-c2nc3cc(NC(=O)c4ccc(F)cc4)ccc3o2)cc1 | i
98 | O=S(=O)(O)c1cccc(NNc2ccc(Nc3ccccc3)cc2)c1 | 1%
99 | CCc1ccc(OCC(=O)Nc2ccccc2-c2nc3ccccc3s2)cc1 | i
100 | COc1cc(SC)ccc1C(=O)Nc1cccc(Br)c1 | i
101 | CCc1ccc(-c2nc3cc(NC(=O)c4cccnc4)ccc3o2)cc1 | 22%
102 | COc1cc(OC)c(NC(=O)c2cc(C)on2)cc1Cl | 1%
103 | CCOc1ccc(C2NC(=S)NC(C)=C2C(=O)Nc2ccc(Cl)cc2)cc1 (stereo not drawn) | i
104 | CC(=O)N1C(=O)NC(c2ccccc2)=C([N+](=O)[O-])C1c1ccccc1 (stereo not drawn) | i
105 | O=C(O)c1ccccc1SCc1ccc2c(c1)OCO2 | 4%
106 | Cc1ccc(N2CC34C=CC(O3)C(C(=O)O)C4C2=O)cc1 (stereo not drawn) | i
107 | CSc1cccc(NC(=O)C(C)N(c2ccccc2)S(C)(=O)=O)c1 (stereo not drawn) | i
108 | Cc1c(=O)n(OCc2ccccc2[N+](=O)[O-])c2ccccc2[n+]1[O-] | i
109 | C=CCNC(=O)c1cc(-c2ccccc2Cl)on1 | 13%
110 | Cc1ccc(-c2cc(C(F)F)n3ncc(C(=O)NC(C)c4ccccc4)c3n2)cc1 (stereo not drawn) | i
111 | CN(C)Cc1c(O)ccc2occ(C(O)c3ccccc3)c12 (stereo not drawn) | 5%
112 | COc1cc(/C=c2\sc3nc4ccccc4n3c2=O)ccc1OCc1cc2c(cc1Cl)OCO2 | i
113 | COc1ccc(CCNC(=O)c2ccc(NS(=O)(=O)c3cc(C)ccc3C)cc2)cc1OC | i
114 | O=C(Nc1nccs1)c1cc2ccccc2o1 | ?
115 | CC(C)(C)OC(=O)CS(=O)c1ccc(S(=O)(=O)C(F)(F)F)cc1[N+](=O)[O-] (stereo not drawn) | 2.1µg/mL*
116 | O=C(Nc1ccccc1C(=O)NCCO)c1ccccc1Cl | i
117 | Cc1cc(C)nc(N/C(=N/S(=O)(=O)c2ccccc2)Nc2ccc(C(C)C)cc2)n1 | i
118 | Cc1cc(C)n2nc(-c3ccc(Cl)cc3)nc2n1 | i
119 | COCC(=O)Nc1nc(-c2cccc([N+](=O)[O-])c2)cs1 | i
120 | COc1ccc(Cl)cc1C(=O)NCc1ccccn1 | i

Other entries follow.
nr | Structure | Mtb H37Rv
121 | Cc1cc(Cl)ccc1OCC(=O)N(Cc1nc(-c2ccc(Cl)cc2)no1)C(C)C | 23%
122 | COc1ccc(Cl)cc1C(=O)Nc1ccccc1C(=O)N1CCN(c2ccccc2)CC1 | 5%
123 | S=C(Nc1ccccc1)N1CCCN1c1ccccc1 | i
124 | COc1ccc2c(=O)c(Oc3ccc4ccccc4c3)coc2c1 | 1%
125 | COc1cccc(C(=O)N2CCN(C(c3ccccc3)c3ccccc3)CC2)c1 | i
126 | CCCOc1ccc(Br)cc1C1C2=C(CCCC2=O)N(CC)C2=C1C(=O)CCC2 | i
127 | Cc1cccc(C)c1NC(=O)CN1CCOCC1 | i
128 | Cc1cc(C)c2c(c1)NC(=O)C2(O)CC(=O)c1cccs1 (stereo not drawn) | i
129 | Cc1cc(Cl)c(OCCCCn2cnc3ccccc3c2=O)c(Br)c1 | 2%
130 | O=C(CSCc1c(Cl)cccc1Cl)NCc1cccnc1 | i
131 | O=C(Nc1ccc(F)c(F)c1)C(Sc1ccccc1)c1ccccc1 (stereo not drawn) | 41%
132 | Cc1ccc(-c2nn(C)c(=O)c3ccccc23)cc1CNC(=O)CSc1nc2ccccc2s1 | i

3 of the compounds above, as labelled records:
[128] Cc1cc(C)c2c(c1)NC(=O)C2(O)CC(=O)c1cccs1 (stereo not drawn)
  Mtb H37Rv = i

[129] Cc1cc(Cl)c(OCCCCn2cnc3ccccc3c2=O)c(Br)c1
  Mtb H37Rv = 2%

[130] O=C(CSCc1c(Cl)cccc1Cl)NCc1cccnc1
  Mtb H37Rv = i

Remaining list, next part
nr | Structure | Mtb H37Rv
133 | CC1(C)Cc2c(c(N3CCCCC3)nc3sc(C#N)c(N)c23)CO1 | 2%
134 | Cc1cc2nc(Sc3c([N+](=O)[O-])nc(C)n3Cc3ccccc3)[nH]c2cc1C | i
135 | CNC(=O)c1cc(Cl)c(OC)c(OC)c1 | i
136 | O=C(Nc1cc(-c2nc3ccccc3[nH]2)ccc1Cl)c1c(F)c(F)c(F)c(F)c1F | i
137 | COc1cccc(N(CC(=O)N2CCN(c3ccccc3OC)CC2)S(C)(=O)=O)c1 | i
138 | COc1ccc(-c2csc3ncnc(N4CCN(c5ccccn5)CC4)c23)cc1 | i
139 | CCOC(=O)Cc1c(C)c2c(C)nn(-c3ccccc3)c2oc1=O | i

Sorted by heavy-atom count (rising): four of the compounds above
nr | Structure | Mtb H37Rv
139 | CCOC(=O)Cc1c(C)c2c(C)nn(-c3ccccc3)c2oc1=O | i
134 | Cc1cc2nc(Sc3c([N+](=O)[O-])nc(C)n3Cc3ccccc3)[nH]c2cc1C | i
138 | COc1ccc(-c2csc3ncnc(N4CCN(c5ccccn5)CC4)c23)cc1 | i
136 | O=C(Nc1cc(-c2nc3ccccc3[nH]2)ccc1Cl)c1c(F)c(F)c(F)c(F)c1F | i

The list is partial; rates above refer to the full screens.
